# PINK1 expr mod: PINK1 expression modulation; Potency, µM (titrated, usually from 76.6 µM), for the others: at the top dose activation (PINK1 increase), hits mostly activators; AID 624263; 410,000 tested, 0.2% active; PINK1 immunofluorescence, high-content cytometry, 24 h; active = well fitted activation curve with a large enough effect; inconclusive = small, poorly fitted or top-dose-only effect; inactive = flat fitted curve, though single readings scatter; cell line not stated here;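 note: % of control where 0% means no effect; nearly all actives have a fitted effect of over 65% in size; a mitochondrial uncoupler was the plate control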
#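 PINK1 protein level read as immunofluorescence by microplate cytometer in a fixed, stained stable cell line after 24 h exposure to five compound concentrations, with CCCP as control.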
# Active calls of the source: *; ? = inconclusive; & = joins results of further samples. Potency is the fitted concentration of half-maximal effect. An excerpt; the hit share may differ from the screen's.
1. Cc1cccc(CNc2ncnc3ccc(-c4c(C)noc4C)cc23)c1
  PINK1 expr mod: 10%
2. CC1(C)c2[nH]c3ccccc3c2C[C@@H]2C(=O)N(c3ccc(F)cc3F)C(=O)N21
  PINK1 expr mod: 5.7%
3. O=c1c(CCc2ccccc2)nc2cnc(N3CCOCC3)nc2n1CCc1ccccc1
  PINK1 expr mod: 3.3%
4. Nc1scc2c(C(=O)O)nn(-c3ccccc3)c(=O)c12
  PINK1 expr mod: 0.7%
5. COC(=O)N1CCC2(CCCN(Cc3ccccc3)C2)CC1
  PINK1 expr mod: -0.6%
6. O=C(NCC1CCC2(CCN(Cc3cccc4ncccc34)CC2)O1)c1ccccc1 (stereo not drawn)
  PINK1 expr mod: 0.2%
7. CC(=O)c1c(O)c(C)c(O)c2c1OC1=CC(=O)C(C(C)=O)C(=O)C12C (stereo not drawn)
  PINK1 expr mod: 0.3%
8. O=S(=O)(c1ccccc1)N1CCC2(CCCN(Cc3ccncc3)C2)CC1
  PINK1 expr mod: -1.2%
9. CN(CC1COCCO1)C(=O)c1cnn(-c2ncc3c(n2)-c2ccccc2CC3)c1C1CC1 (stereo not drawn)
  PINK1 expr mod: -0.1%
10. COc1c(O)cc2c(-c3ccccc3)cc(=O)oc2c1OC
  PINK1 expr mod: 1.7%

11. Cc1c(C(=O)N2CCCCC2)sc2ncnc(NCCN(C)C)c12
  PINK1 expr mod: 0.6%
12. CC(=O)/C=C\C1[C@]2(C)CCCC(C)(C)C2CC[C@@]1(C)O (stereo partly drawn)
  PINK1 expr mod: -0.9%
13. COc1ccccc1CN1CCCC2(CCN(C(=O)c3csnn3)CC2)C1
  PINK1 expr mod: -0.4%
14. N#Cc1ccccc1-c1ccc2ncnc(NCc3ccccc3)c2c1
  PINK1 expr mod: 3.5%
15. COc1ccc(CNc2ccnc(-c3ccccc3OC)n2)c(OC)c1
  PINK1 expr mod: -0.3%
16. OCC1O[C@H](Oc2ccc(O)cc2)C(O)C(O)C1O (stereo partly drawn)
  PINK1 expr mod: 1.7%
17. c1ccc(Nc2nc(-c3ccc4c(c3)OCO4)nc3ccccc23)cc1
  PINK1 expr mod: 2.0%
18. COc1cccc(-c2ccnc(-n3ncc(C(=O)NCC(C)(C)CN(C)C)c3C)n2)c1
  PINK1 expr mod: 0.2%
19. N#CN1CCC(NS(=O)(=O)c2ccc(C(F)(F)F)cc2)CC1
  PINK1 expr mod: -0.4%
20. CN(Cc1ccco1)c1ncncc1-c1ccc2c(c1)OCO2
  PINK1 expr mod: 0.8%

21. COCCn1c(=O)c(-c2ccccc2)nc2cnc(Nc3cccc(OC)c3)nc21
  PINK1 expr mod: 6.6%
22. c1ccc(Nc2ncncc2-c2ccoc2)cc1
  PINK1 expr mod: -0.7%
23. Cc1cccc2c(Nc3ccc4c(c3)OCO4)nc(CN3CCC(N4CCCCC4)CC3)nc12
  PINK1 expr mod: 9.4%
24. CC(=O)Oc1ccc2c(c1OC(C)=O)OCC1(O)Cc3c(cc(OC(C)=O)c(OC(C)=O)c3OC(C)=O)C21 (stereo not drawn)
  PINK1 expr mod: -1.5%
25. COc1ccc(-c2nc3cnc(N4CCN(C)CC4)nc3n(C3CC3)c2=O)cc1
  PINK1 expr mod: -0.5%
26. CS(=O)(=O)Nc1cccc(-c2nc(NCc3cccs3)c3ccccc3n2)c1
  PINK1 expr mod: -0.5%
27. CCC1(C2CCN(Cc3ccoc3)CC2)NC(=O)N(CC2COc3ccccc3O2)C1=O (stereo not drawn)
  PINK1 expr mod: 0.0%
28. Cc1noc(C)c1C(=O)N1CCC2(CCCN(C(=O)Nc3cccc(F)c3)C2)CC1
  PINK1 expr mod: -0.4%
29. Cc1ccccc1-c1cncnc1NCc1cccnc1
  PINK1 expr mod: -0.1%
30. COc1ccc(-c2ccnc(-n3ncc(C(=O)NCc4cccnc4)c3C3CC3)n2)cc1F
  PINK1 expr mod: 1.1%

31. O=C(NC1CCC(n2cc(C(=O)NC3CC3)nn2)CC1)C(=O)c1ccccc1 (stereo not drawn)
  PINK1 expr mod: 0.0%
32. CCC1C(=O)NCCN1Cc1ccc2c(c1)CN(Cc1ccc(OC)c(OC)c1)CCO2 (stereo not drawn)
  PINK1 expr mod: 0.2%
33. COc1ccc(-n2c(CNC(=O)c3cccc(OC)c3OC)nnc2SC)cc1
  PINK1 expr mod: 2.5%
34. COc1ccc(-n2c(=O)c(-c3cc(F)cc(F)c3)nc3cnc(N4CCNCC4)nc32)cc1
  PINK1 expr mod: 2.4%
35. Cc1nonc1CN(C)C(=O)C1CC12CCN(C(=O)/C=C/c1cccc(Cl)c1)CC2 (stereo not drawn)
  PINK1 expr mod: -0.4%
36. CN(C)C(=O)c1ccc(-c2cncnc2N(C)Cc2ccco2)cc1
  PINK1 expr mod: -0.3%
37. COc1cc(=O)n2c(c1C(=O)NCc1ccco1)CCN(Cc1ccc(F)cc1Cl)CC2
  PINK1 expr mod: 0.0%
38. COCCNc1nc(-c2ccccc2OC)nc2ccccc12
  PINK1 expr mod: -0.8%
39. Cc1noc(C)c1-c1cc(N2CCNCC2)ncn1
  PINK1 expr mod: 1.2%
40. Cc1ccc(C(=O)Nc2cccc(-c3nc(CNC(=O)C4CCCCC4)c(C)o3)c2)s1
  PINK1 expr mod: 1.7%

41. O=c1cnc2cnc(Oc3ccccc3)nc2n1C[C@H]1CCCO1
  PINK1 expr mod: -1.2%
42. CC(C)Oc1ccc(Cl)cc1Nc1nc(NCCO)nc(N2CCCC2)n1
  PINK1 expr mod: -0.9%
43. CC(C)CC(NC(=O)CN)C(=O)NC(Cc1ccccc1)C(=O)O (stereo not drawn)
  PINK1 expr mod: 0.2%
44. CN(CCO)C(=O)c1cn(C2CCN(Cc3ccc4ccccc4c3)CC2)nn1
  PINK1 expr mod: -0.3%
45. O=C(Oc1ccccc1)N1CCC2(CC1)CCN(c1ccccc1)CC2
  PINK1 expr mod: -1.0%
46. COc1ccc2[nH]cc(CCNc3nc(-c4c(C)noc4C)nc4ccccc34)c2c1
  PINK1 expr mod: 5.6%
47. COc1ncc2nc(-c3cc(F)cc(F)c3)c(=O)n(C)c2n1
  PINK1 expr mod: 1.6%
48. CC(Oc1ccccc1)C(=O)NC1C(=O)N2C(C(=O)O)C(C)(C)S[C@@H]12 (stereo partly drawn)
  PINK1 expr mod: 1.9%
49. COCC(=O)Nc1cc(C(=O)N2CCN(c3ccc(Cl)cn3)CC2)c2c(c1)nc(C1CCC1)n2C
  PINK1 expr mod: 2.6%
50. COc1ccc2[nH]cc(CCNc3ncncc3-c3ccccc3C)c2c1
  PINK1 expr mod: 0.1%

51. COc1cc(-c2cc(C)c3c(OC)ccc(OC)c3n2)cc2c1OCCN(C(=O)Cn1nc(C)cc1C)C2
  PINK1 expr mod: -0.3%
52. COc1cc(/C=C/CN2CCOc3ccc(C(O)c4cccnc4)cc3C2)ccc1O (stereo not drawn)
  PINK1 expr mod: 0.5%
53. CN1CCN(c2ncc3nc(-c4cccc(C#N)c4)c(=O)n(C)c3n2)CC1
  PINK1 expr mod: 0.8%
54. COc1cccc(C2(CC(=O)N3CCCOc4c(cccc4OC)C3)CC(=O)N(C)C2=O)c1 (stereo not drawn)
  PINK1 expr mod: -0.6%
55. COc1cccc(Nc2ncc3nc(-c4ccccc4)c(=O)n(C)c3n2)c1
  PINK1 expr mod: 2.4%
56. COc1ncc2nc(-c3cn(C)c4ccccc34)c(=O)n(CCC#N)c2n1
  PINK1 expr mod: 6.8%
57. COc1ccc(-n2c(=O)cnc3cnc(N4CCOCC4)nc32)cc1
  PINK1 expr mod: 1.2%
58. N#Cc1ccccc1-c1ccc2ncnc(N3CCNCC3)c2c1
  PINK1 expr mod: -1.3%
59. O=C(O)c1ccc(-c2noc(-c3cccc(Cl)c3)n2)cc1
  PINK1 expr mod: 2.3%
60. O=C(c1csnn1)N1CCC[C@@]2(CCN(c3ccncc3)C2)C1
  PINK1 expr mod: 0.9%

61. COc1ccc(C(=O)N2CCC3(CC2)CCN(c2ncccn2)CC3)cc1
  PINK1 expr mod: 1.8%
62. CC1CN(CC(=O)N2CCN(Cc3nccn3C)CC2)Cc2cc(Cl)ccc2O1 (stereo not drawn)
  PINK1 expr mod: -0.9%
63. c1ccc(C(c2ccccc2)N2CCC3(CCNCC3)CC2)cc1
  PINK1 expr mod: 4.0%
64. Cc1cccc(CNc2nc(-c3ccc(C(=O)N(C)C)cc3)nc3ccccc23)c1
  PINK1 expr mod: 1.4%
65. CO[C@H]1[C@H](NC(=O)c2ccco2)c2ccccc2C12CCN(Cc1cccn1-c1ccccn1)CC2
  PINK1 expr mod: -0.6%
66. Cc1cnc(-n2ncc(C(=O)N(C)CC3COCCO3)c2C2CC2)nc1-c1cccs1 (stereo not drawn)
  PINK1 expr mod: 0.0%
67. COc1cccc(C2(CC(=O)N3CCN(c4ccccc4O)CC3)CC(=O)N(C3CCCC3)C2=O)c1 (stereo not drawn)
  PINK1 expr mod: 0.3%
68. COCC(=O)Nc1cc(C(=O)N2CCc3ccccc3C2)c2c(c1)nc(-c1ccncc1)n2C
  PINK1 expr mod: -0.1%
69. CC(C)CCCC(C)C1CCC2C3C(=O)C=C4CC(O)CC[C@@]4(C)C3CC[C@@]12C (stereo partly drawn)
  PINK1 expr mod: 1.7%
70. Cn1c(=O)c(-c2ccccc2)nc2cnc(OCc3ccccc3)nc21
  PINK1 expr mod: -0.6%

71. CC(=O)Nc1cc(C(=O)N2CCN(C(=O)c3ccco3)CC2)cc2ncn(CCc3ccccn3)c12
  PINK1 expr mod: 1.4%
72. COc1ncc2nc(CCc3ccccc3)c(=O)n(-c3ccccc3)c2n1
  PINK1 expr mod: -0.2%
73. CC(=O)Oc1c(-c2ccccc2)oc2c(CC=C(C)C)c3c(c(OC(C)=O)c2c1=O)C=CC(C)(C)O3
  PINK1 expr mod: ?
74. O=c1c(-c2ccc(F)cc2)nc2cnc(N3CCOCC3)nc2n1-c1ccccc1
  PINK1 expr mod: 0.9%
75. CCNc1ncc2nc(CCc3ccccc3)c(=O)n(Cc3cccc(OC)c3)c2n1
  PINK1 expr mod: 1.7%
76. CC(=O)NC(c1ccco1)c1cc(Cl)c2ccccc2c1O (stereo not drawn)
  PINK1 expr mod: 2.9%
77. COc1cccc(-c2ccc3ncnc(NCc4cccnc4)c3c2)c1
  PINK1 expr mod: -0.3%&-0.3%
78. COc1ccccc1N1CCN(c2nc(CNC(=O)c3ccc(C)c(C)c3)nc3ccccc23)CC1
  PINK1 expr mod: 2.1%
79. O=C(CCN1Cc2ccccc2OC(c2ccccc2)C1)N[C@@H]1CS(=O)(=O)C[C@H]1O (stereo partly drawn)
  PINK1 expr mod: -0.6%
80. Cc1cc(C)cc(CN2CCc3nnc(C(NS(C)(=O)=O)C(C)C)n3CC2)c1 (stereo not drawn)
  PINK1 expr mod: -0.8%

81. COc1ccccc1-c1cc(NCc2cccc(C)c2)ncn1
  PINK1 expr mod: 6.0%
82. O=c1c(CCc2ccccc2)nc2cncnc2n1Cc1ccccc1Cl
  PINK1 expr mod: 1.6%
83. Cc1cccc(-c2ccc3ncnc(NCc4cccnc4)c3c2)c1
  PINK1 expr mod: 0.8%
84. O=C(COC(=O)CNC(=O)C1CCCCC1)Nc1cc(C(F)(F)F)ccc1Cl
  PINK1 expr mod: 1.9%
85. CCNc1ncc2nc(-c3cccs3)c(=O)n(Cc3ccc(F)cc3)c2n1
  PINK1 expr mod: ?
86. COCCn1c(=O)c(-c2cccs2)nc2cnc(N(C)C)nc21
  PINK1 expr mod: 0.5%
87. COC(=O)c1ccccc1-c1cc(C)cc2c1OC(CNC(=O)c1cnc(C)cn1)C2 (stereo not drawn)
  PINK1 expr mod: 0.8%
88. COc1ccccc1-c1ccnc(-n2ncc(C(=O)N(C)C(C)c3nc(C)cs3)c2C2CC2)n1 (stereo not drawn)
  PINK1 expr mod: 0.2%
89. Cc1cnc(-n2ncc(C(=O)NC(C)(C)CO)c2-c2cccs2)nc1-c1ccc(F)cc1
  PINK1 expr mod: -1.1%
90. Cc1cccc(CNc2cc(-c3cccc(C#N)c3)ncn2)c1
  PINK1 expr mod: -0.3%

91. Cc1c(C(=O)N2CCCC(C)C2)sc2ncnc(NCCN3CCCCC3)c12 (stereo not drawn)
  PINK1 expr mod: 1.1%
92. N#CCCn1c(=O)c(-c2ccc(F)cc2)nc2cnc(N3CCOCC3)nc21
  PINK1 expr mod: -0.3%
93. O=C(Nc1ccccc1)N1CC[C@@]2(CCCN(C(=O)c3cccc(F)c3)C2)C1
  PINK1 expr mod: -0.1%
94. CN(C)c1ccc(-c2ccc3ncnc(NC4CC4)c3c2)cc1
  PINK1 expr mod: 5.8%
95. CCOC(=O)C(C#N)(Cc1cc(OC)cc(OC)c1)Cc1cc(OC)cc(OC)c1
  PINK1 expr mod: 2.8%
96. COc1ccc(-n2c(=O)c(-c3ccc(Cl)cc3)nc3cncnc32)cc1
  PINK1 expr mod: -0.4%
97. COc1ccc(CN(C)CCn2cc(C(=O)N3CCSCC3)nn2)cc1C
  PINK1 expr mod: 0.0%
98. COC1=CC(C)C2CC3OC(=O)CC4C(C)=C(OC)C(=O)C([C@]2(C)C1=O)[C@]34C (stereo partly drawn)
  PINK1 expr mod: 1.6%
